Screening data as filed in PubChem.
Beta apoptosis – beta cell apoptosis inhibition; INS-1E cytokine-induced death, ATP luminescence, 48 h; percent of positive-control rescue, neutral wells zero; protection from apoptosis, % (test concentration not listed); hit rate 0.8% among 300,000; AID 435005;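 active = all replicates at 75% or more, or half of them and the mean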;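 note: 0% = cytokine-treated negative control wells and 100% = positive control rescue; higher means more ATP so stronger rescue from cytokine killing; wells of about 40 µL received 100 nL stock; the first replicate is given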
E coli growth – inhibitors of Escherichia coli growth; OD600, 23 h; hits give low values; hit rate 0.21% among 330,000; OD600 absorbance (concentration not given with the values);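 active = OD600 absorbance below the run mean of sample wells minus 3.6 SD, in any replicate, cut at about 0.56 in these data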;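 note: stock transfer was 300 nL into about 60 µL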
Bfl-1 A1 inh – inhibitors of the anti-apoptotic protein A1, read as caspase activation; caspase activation, % (test concentration not listed); MEF A1-2A-BIM cells, Caspase-Glo 3/7 luminescence, 3 h; percent of clofoctol response, vehicle zero; hit rate 0.066% among 330,000;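 active = over half of replicate activation scores above 10%, or exactly half above 10 with the replicate mean above 10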;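 note: wells of about 30 µL received 50 nL stock; many hits fall short of the cut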
MLL AF4-AF9 inh – blocks AF4 peptide binding to human AF9. hit rate 0.47% among 350,000. inhibition, % at 10 µM. AlphaScreen, biotin-AF4 peptide binding to FLAG-AF9. AID 651704;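 active = every replicate reaching a set inhibition limit, whatever the replicate mean, cut at about 25% in these data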;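 note: 0% = plate neutral control median and 100% = total signal loss; the record names both 10 and 1 µM as test concentration; the first replicate is given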
Target sequence (P42568 whole entry, looked up): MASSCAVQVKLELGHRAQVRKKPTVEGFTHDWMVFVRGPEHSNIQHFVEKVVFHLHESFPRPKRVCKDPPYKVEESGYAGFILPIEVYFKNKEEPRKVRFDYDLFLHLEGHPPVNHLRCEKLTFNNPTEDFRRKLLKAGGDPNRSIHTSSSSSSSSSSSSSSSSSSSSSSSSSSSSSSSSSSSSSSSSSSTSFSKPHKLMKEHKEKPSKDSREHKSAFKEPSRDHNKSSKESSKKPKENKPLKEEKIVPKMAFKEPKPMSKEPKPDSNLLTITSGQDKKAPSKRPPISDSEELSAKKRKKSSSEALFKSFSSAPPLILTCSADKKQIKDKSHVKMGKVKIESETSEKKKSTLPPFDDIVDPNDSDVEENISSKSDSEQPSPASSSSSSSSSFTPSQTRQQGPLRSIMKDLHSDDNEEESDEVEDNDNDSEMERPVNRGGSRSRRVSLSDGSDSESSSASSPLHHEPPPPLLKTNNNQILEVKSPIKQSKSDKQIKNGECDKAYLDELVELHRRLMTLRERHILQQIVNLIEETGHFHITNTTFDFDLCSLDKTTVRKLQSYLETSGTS
rRNA inh HTS – selective bacterial rRNA inhibition in E. coli; GFP signal change (wild-type ribosome), % (test concentration not listed); hit rate 1.6% among 350,000; E. coli WT GFP vs humanized-ribosome RFP mutants, fluorescence, 24 h; hits give low values; DMSO median 0, no signal -100; AID 720706;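 active = significant combined selectivity score with lowered wild-type GFP, culture density cut under 30%, mutant RFP and density less affected; inactive = any of these conditions unmet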; note: one replicate is shown; some compounds called inactive have numbers as strong as hits
UCH37 DUB inh – blocks the human deubiquitinase UCH37; purified proteasome/UCH37, Ub-AMC cleavage fluorescence; Q9Y5K5; AID 588478; hit rate 0.33% among 330,000; inhibition, % (no concentration beside the values);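 active = mean of two replicates above 20%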;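 note: 0% = compound-free wells with enzyme and 100% = wells lacking proteasome; stock transfer was 100 nL into about 20 µL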
Target sequence (Q9Y5K5 whole entry, looked up): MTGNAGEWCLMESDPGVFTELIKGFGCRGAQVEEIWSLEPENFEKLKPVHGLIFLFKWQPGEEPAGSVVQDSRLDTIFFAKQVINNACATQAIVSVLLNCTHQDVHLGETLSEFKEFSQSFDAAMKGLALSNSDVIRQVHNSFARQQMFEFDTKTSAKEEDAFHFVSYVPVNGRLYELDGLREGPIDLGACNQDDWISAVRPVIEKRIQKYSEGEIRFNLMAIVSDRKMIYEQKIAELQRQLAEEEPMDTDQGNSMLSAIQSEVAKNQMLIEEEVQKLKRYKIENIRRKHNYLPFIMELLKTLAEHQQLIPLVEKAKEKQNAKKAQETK
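Material: Human UCH37 enzyme supplied as purified proteasome complex | Schedule: 30 min preincubation with enzyme, 25 min cleavage at room temperature | Detection: AMC fluorescence 355/460 nm | Measure: % inhibition of Ub-AMC cleavage fluorescence | Controls: Wells without proteasome as full block, compound-free enzyme plus substrate as uninhibited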
T cruzi inh – blocks replication of Trypanosoma cruzi; inhibition, % (no concentration beside the values); AID 1885; T. cruzi beta-gal in NIH3T3, luminescence, 90 h; hit rate 1.4% among 300,000;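 active = mean inhibition across valid replicates above about 55%, limit read from the data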;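 note: signal also drops with host cell toxicity which is not excluded here; 0% = plate median of DMSO wells and 100% = zero luminescence signal; higher percent means less beta-gal luminescence so fewer parasites; stock transfer was 50 nL into about 50 µL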
FGF22 binding – binders of recombinant human FGF22 by thermal shift. Q9HCT0. SYPRO orange fluorescence; percent of sucrose octasulfate shift, DMSO zero. calls only at 9.99 µM. hit rate 1.5% among 340,000. AID 651658;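 active = melting point raised past a set limit in the mean and every replicate; three in four hits are not shown here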
Target sequence (Q9HCT0 whole entry, looked up): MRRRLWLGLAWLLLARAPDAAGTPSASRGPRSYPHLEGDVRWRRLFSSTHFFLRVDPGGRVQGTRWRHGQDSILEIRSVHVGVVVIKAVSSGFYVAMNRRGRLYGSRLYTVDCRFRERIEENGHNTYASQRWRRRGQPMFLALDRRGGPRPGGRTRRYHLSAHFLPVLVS
rRNA inh HTS OD600 – further read-out of rRNA inh HTS, marked with its call; OD600 change, %; measured here: OD600 growth;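 optical density of the mix in the first replicate; 0 = DMSO median and -100 = no signal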
rRNA inh HTS RFP – also measured in rRNA inh HTS; calls as there; RFP signal change, %; measured here: RFP humanized mutant strains;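 first replicate; 0 = DMSO median and -100 = no signal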
Numbers without * were called inactive; i = inactive; x = not tested or not shown; & = joins results of further samples.

SMILES	Beta apoptosis	E coli growth	Bfl-1 A1 inh	MLL AF4-AF9 inh	rRNA inh HTS	rRNA inh HTS OD600	rRNA inh HTS RFP	UCH37 DUB inh	T cruzi inh	FGF22 binding
CCOC(=O)C1CCCN(CC(=O)c2ccc(F)cc2)C1 (centres undefined)	-7	0.66	0.3	0.7	11	12	-0.6	0.4	-4	i
O=C(Nc1ccc(O)cc1)/C(=C\c1ccncc1)NC(=O)c1ccccc1	-6	0.68	-0.7	-1.1	9	10	2.1	4.8	-8	i
COc1ccc(C(=O)Nc2ccccc2C(=O)NC(C)C)cc1OC	1	0.72	-0.5	x	x	x	x	-2.0	2	x
CC1(C)CC(CC(=O)NC(=S)Nc2ccc([N+](=O)[O-])cc2)C(=O)O1 (centres undefined)	-8	0.72	1.0	x	x	x	x	7.1	4	x
O=c1[nH]c(C2CCN(S(=O)(=O)/C=C/c3ccccc3)CC2)nc2c1nnn2Cc1ccccc1	6	0.64	0.2	-4.0	-5	-19	5.7	0.8	4	x
O=C(NCc1ccccn1)c1n[nH]c(=O)c2ccccc12	-3	0.65	-0.5	0.8	9	4	-3.7	1.9	-4	i
Cn1c(CNC(=O)c2cccs2)nnc1SCC(=O)Nc1ccc(Cl)cc1	x	0.64	-0.4	x	x	x	x	2.2	-17	x
O=C(CSc1ncccn1)Nc1ncc(C(F)(F)F)cc1Cl	0	0.63	-0.7	-1.3	10	11	-0.2	4.2	-7	i
CN(C(=O)COC(=O)c1ccccc1NC(=O)c1ccco1)C1CCS(=O)(=O)C1 (centres undefined)	-7	0.69	0.3	-0.2	10	-10	-4.8	1.4	2	i
CCOc1ccc(CNCc2ccc(C(=O)O)cc2)cc1OC	x	0.69	0.5	-3.2	18	15	1.1	3.1	-23	i
O=C(O)CCC(=O)Nc1ccc(S(=O)(=O)N2CCCC2)cc1	2	0.76	-0.4	x	x	x	x	-1.4	-3	x
O=C(CSCc1ccc(Cl)cc1)NN=C1CCCC1	2	0.72	-0.8	-0.5	-13	-7	-0.8	-1.2	-3	i
O=C(NCC(c1ccco1)N1CCCCC1)c1ccc(S(=O)(=O)Nc2ccccc2)cc1 (centres undefined)	7	0.65	-0.6	-0.9	1	10	5.4	4.3	-6	i
CC1(C)CC(=O)C(C=NCCC2=CCCCC2)=C(O)C1	0	0.7	0.6	x	x	x	x	2.1	0	x
Cc1sc2nc(SCC(=O)Nc3ccc(S(N)(=O)=O)cc3)[nH]c(=O)c2c1C	2	0.74	0.8	-0.8	-6	13	-5.5	3.0	6	i
CCOc1ccc(N=C2Sc3nc4ccc(C)cc4cc3CN2CCOC)cc1	-6	0.71	-0.4	4.7	-22	-36	-8.9	1.1	39	i
O=c1ccc2c(-c3ccccc3S(=O)(=O)O)c3ccc(O)c(O)c3oc-2c1O	40	0.74	-2.8	10	x	x	x	29*	x	i
O=C(NCCc1ccccc1)C1CCC(CNS(=O)(=O)c2ccc(F)cc2)CC1 (centres undefined)	-5	0.69	0.5	-1.1	4	17	-0.4	2.7	14	i
Clc1ccc(OCCN2CCOCC2)cc1Cl	1	0.71	-0.7	x	x	x	x	3.3	-17	x
CC(C)NC(=O)COc1coc(CN2CCN(c3ccccc3F)CC2)cc1=O	-4	0.7	2.8	-0.9	4	17	-0.5	1.0	-22	i
C/C(=N\NC(=O)c1ccccc1O)c1ccc(NC(=O)Cc2ccccc2)cc1	23	x	0.2	-1.3	5	10	1.8	x	-7	i
Cc1ccc(C(=O)Nc2ccc(C)c(S(=O)(=O)N3CCOCC3)c2)c(C)c1	-5	0.71	0.9	-0.5	1	-5	-2.7	4.4	7	i
CCOc1ccccc1NC(=O)Nc1ccc2c(c1)CCC2	2	0.65	-7.2	0.9	-4	-6	-2.1	2.4	15	i
Cn1c(CC(=O)NNC(=O)c2ccc(F)cc2F)nc2ccccc21	-2	0.67	-0.2	-3.4	6	24	-0.5	3.0	x	i
O=C1CC(c2ccc3c(c2)OCCO3)Oc2ccccc21 (centres undefined)	-6	0.6	-0.5	0.5	-14	-30	-6.9	0.6	4	i
(list continues)
SMILES	Beta apoptosis	E coli growth	Bfl-1 A1 inh	MLL AF4-AF9 inh	rRNA inh HTS	rRNA inh HTS OD600	rRNA inh HTS RFP	UCH37 DUB inh	T cruzi inh	FGF22 binding
CNC(=O)NC(=O)CSc1nc2cc(C(=O)OC)ccc2c(=O)n1-c1ccccc1	4	0.68	-0.5	x	x	x	x	-5.3	-8	x
Cc1cc(CNC(=O)C(C)n2nc(C)c([N+](=O)[O-])c2C)c2ccccc2n1 (centres undefined)	0	0.68	1.1	-1.5	-2	-4	0.6	2.2	9	i
Cc1cc([N+](=O)[O-])ccc1NC(=O)C1CCCO1 (centres undefined)	1	0.71	0.1	x	x	x	x	-0.1	-7	x
Cc1ccc(C)c(N2CCN(S(=O)(=O)c3ccc4c(c3)CC(C)N4C(=O)C3CC3)CC2)c1 (centres undefined)	-6	0.66	0.4	-13	2	11	1.6	2.2	8	i
Cc1cccc(C(=O)Nc2ccc(C(=O)/C=C/c3ccncc3)cc2)c1	15	0.65	-0.1	-5.7	-6	-9	0.9	6.3	25	i
CC/C=C(\NC(C)=O)c1ccccc1	-2	x	1.1	-5.2	8	8	2.3	2.4	x	i
CC(Sc1ccc(Cl)cc1)C(=O)NCc1ccc2c(c1)OCO2 (centres undefined)	2	0.72	-0.6	x	x	x	x	1.8	15	x
CCOc1ccc2[nH]c(=O)c(CN(CCO)C(=O)c3ccccc3F)cc2c1	1	0.65	0.2	x	x	x	x	-22	10	x
CSc1nc2ccc3nc(NC(=O)c4ccccc4)sc3c2s1	11	0.82	-4.9	-2.2	8	18	-2.5	-73	15	i
CCOC(=O)NN1C(=O)c2ccccc2NC1c1ccc(OC)cc1 (centres undefined)	2	0.65	0.6	-5.1	-3	-3	3.2	-301	-5	i
COc1cc(/C=N/O)ccc1Oc1ccc([N+](=O)[O-])cc1[N+](=O)[O-]	-2	x	-0.2	8.1	-4	-6	-2.2	x	25	i
COc1ccc(C2C(C(N)=O)=C(C)Nc3nc(CCCO)nn32)cc1OC (centres undefined)	x	0.61	0.7	x	x	x	x	-1.6	8	x
CCCCN(CC)CCNC(=O)c1cc2c(=O)[nH]c3ccccc3c2s1	0	0.69	0.8	3.2	4	4	-4.5	-312	38	i
CC1=C(C(=O)N2CCOCC2)C(c2cccs2)NC(=O)N1 (centres undefined)	-3	0.72	-1.4	x	x	x	x	1.5	-17	x
COc1ccc(S(=O)(=O)N(C)C[C@H]2Oc3ccc(NS(=O)(=O)c4ccccc4)cc3C(=O)N([C@H](C)CO)C[C@@H]2C)cc1	-10	0.72	2.2	-3.9&-3.7	-4&-5	-3&-14	2.4&0.4	3.3	x	i
CCCNC(=O)c1ccc(COc2ccc(C)cc2)o1	-3	0.68	-0.3	-3.3	-3	-5	1.3	0.4	2	i
CC(CN1CCCCC1)OC(=O)c1ccco1 (centres undefined)	-3	0.69	0.6	-0.4	7	14	0.8	0.4	-4	i
O=C(NCc1cccnc1)C(=O)c1c[nH]c2ccccc12	-3	0.69	-0.9	-4.4	-7	-10	-2.7	10	-5	i
Cc1ccccc1NC(=O)c1ccc(NC(=O)c2ccco2)cc1	1	0.69	-0.9	x	x	x	x	0.4	-13	x
COc1ccc(S(=O)(=O)NC(C)C(=O)NCc2ccncc2)cc1C (centres undefined)	-3	0.7	0.4	-35	3	11	-2.2	3.5	-6	i
CC(C)(C)C1CCC(C(=O)Nc2ccccc2)CC1 (centres undefined)	-2	0.68	-0.5	x	-1	-8	-3.5	0.5	7	x
N#Cc1c(-c2ccc(Cl)cc2)cc(-c2ccccc2)nc1SCC(=O)O	3	0.69	0.5	-1.4	-49	-70	-9.4	-5.4	7	i
COc1cc(OC)cc(C(=O)NNC(=O)c2cc3ccccc3cc2O)c1	4	0.67	-0.4	-0.6	-10	-15	-2.4	-0.8	-1	i
N#C/C(=C\c1ccc(N2CCOCC2)o1)c1nc2ccccc2[nH]1	0	0.67	-4.0	x	x	x	x	x	22	x
CCc1nc2oc3ccc(C)cc3c(=O)c2cc1C(=O)OC	12	0.71	-6.8	-7.0	10	17	-2.0	-13	-14	i
(next part)
SMILES	Beta apoptosis	E coli growth	Bfl-1 A1 inh	MLL AF4-AF9 inh	rRNA inh HTS	rRNA inh HTS OD600	rRNA inh HTS RFP	UCH37 DUB inh	T cruzi inh	FGF22 binding
CC(C)CC(=O)N=C1SC2CS(=O)(=O)CC2N1Cc1ccccc1Cl (centres undefined)	0	0.65	0.9	-0.6	6	5	-1.2	5.4	25	i
CC(C)c1ccc(NC(=O)COC(=O)CC2CCCC2)cc1	-3	0.69	1.6	-8.2	-1	-1	-1.9	2.8	x	i
Fc1ccc(-c2csc(-c3ccncc3)n2)cc1	-7	0.7	0.1	-0.4	-1	-1	1.3	-20	32	i
COc1cccc(C2CCCCN(C)C2=O)c1 (centres undefined)	-7	0.69	0.7	-1.4	15	11	4.3	1.6	-14	i
Fc1ccc(N=C2NN=C(c3cc(F)ccc3F)CS2)cc1	63	0.7	0.7	-46	8	9	-0.5	-0.4	x	i
COc1c(F)c(F)c(C(=O)O)c(Nc2ccccc2C)c1F	-1	0.71	0.1	x	x	x	x	-1.7	-23	x
COC(=O)c1sc(SC)c(-c2ccon2)c1C	2	0.68	-0.5	0.9	3	-2	0.2	0.9	-4	i
S=c1[nH]nc(-c2ccco2)n1/N=C/c1cccc(Cl)c1	5	x	-0.5	-3.7	3	-13	-0.6	x	-18	i
O=C(NCc1cccs1)C1CCCN(S(=O)(=O)c2ccc(Br)s2)C1 (centres undefined)	-5	0.77	-0.9	x	x	x	x	2.4	11	x
O=C(NNc1ccccc1[N+](=O)[O-])Nc1ccc(F)cc1	-5	0.64	-0.5	3.7	-18	-36	11	3.6	14	x
CC(=O)Nc1c(O)c2ccccc2[nH]c1=O	-6	0.69	0.7	-3.2	16	19	1.8	-1.5	-8	i
NC(=O)C1(N2CCCCC2)CCN(C(=S)Nc2cccc(Cl)c2)CC1	-2	0.69	1.3	-13	3	-5	6.7	1.0	-5	i
O=C(NCC1CC1)Nc1cccc(Cl)c1	-7	0.64	-3.3	-1.2	-2	0	-0.6	0.3	-16	i
O=C1CCC([N+](=O)[O-])C(c2cccc(Br)c2)N1 (centres undefined)	0	0.69	-0.8	x	x	x	x	1.1	-23	x
COc1ccc(OC)c2sc(N(CCN(C)C)C(=O)/C=C/c3cccs3)nc12	30	x	-0.5	11	1	15	2.4	x	-5	i

UCH37 DUB inh: what is marked active above.
mol	E coli growth	MLL AF4-AF9 inh	rRNA inh HTS	rRNA inh HTS OD600	rRNA inh HTS RFP	UCH37 DUB inh	FGF22 binding
O=c1ccc2c(-c3ccccc3S(=O)(=O)O)c3ccc(O)c(O)c3oc-2c1O	0.74	10	x	x	x	29*	i

Structures listed so far that contain a cyano group, in the order listed:
SMILES	Beta apoptosis	E coli growth	Bfl-1 A1 inh	MLL AF4-AF9 inh	rRNA inh HTS	rRNA inh HTS OD600	rRNA inh HTS RFP	UCH37 DUB inh	T cruzi inh	FGF22 binding
N#Cc1c(-c2ccc(Cl)cc2)cc(-c2ccccc2)nc1SCC(=O)O	3	0.69	0.5	-1.4	-49	-70	-9.4	-5.4	7	i
N#C/C(=C\c1ccc(N2CCOCC2)o1)c1nc2ccccc2[nH]1	0	0.67	-4.0	x	x	x	x	x	22	x

The list is partial, so the mix of outcomes need not match the whole.
